Source: PubChem
Yeast UUG start: yeast start codon fidelity modulation; activity score, % at 18.7 µM; S. cerevisiae UUG-firefly luciferase reporter, luminescence/redox ratio; AID 602363; 350,000 tested, 0.13% active;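 active = replicate mean at a twofold rise or more, about +100% in these data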;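 also: firefly luciferase made from a UUG start codon reports start codon fidelity; reporter light over untreated wells divided by growth signal over untreated wells; some hits fall short of that in this replicate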
MT1-MMP act inh: MT1-MMP (human) activation inhibition; GFP/RFP ratio change, % at 20 µM; 360,000 tested, 0.061% active; AID 651647; HT1080 RFP-PRO-GFP cells, GFP/RFP ratio fluorescence, overnight; percent of plate control window, DMSO zero;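 active = GFP/RFP ratio change of at least 30% with cell ATP level not reduced by more than half and red fluorescence within 50% of control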; also: strong numbers were not always called active
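Material – HT1080 RFP-PRO-GFP cells · Control set – DMSO wells and RFP-L50D-GFP cells · Incubation – overnight cell settling, then overnight compound exposure, 37 °C, 5% CO2 · Compound dosing – single-point 20 µM compound, 1% DMSO · Read-out – GFP/RFP fluorescence ratio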
PABP polyA inh: blocks human PABP binding to poly(A) RNA; P11940; inhibition, % at 35 µM; 290,000 tested, 1% active; fluorescence polarization;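 active = 50% or more with normal probe brightness, or confirmed in later tests; inconclusive = above 50% with abnormal brightness, or retests that disagree; inactive = below 50% or failed in later tests; about a fifth of its hits are not listed in these tables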;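 also: calls also rest on retests at 20 µM and on dose response follow-up; controls were probe without protein and protein plus probe with vehicle; some compounds called inactive have numbers as strong as hits; many hits fall short of the cut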
Target sequence (P11940 whole entry, looked up): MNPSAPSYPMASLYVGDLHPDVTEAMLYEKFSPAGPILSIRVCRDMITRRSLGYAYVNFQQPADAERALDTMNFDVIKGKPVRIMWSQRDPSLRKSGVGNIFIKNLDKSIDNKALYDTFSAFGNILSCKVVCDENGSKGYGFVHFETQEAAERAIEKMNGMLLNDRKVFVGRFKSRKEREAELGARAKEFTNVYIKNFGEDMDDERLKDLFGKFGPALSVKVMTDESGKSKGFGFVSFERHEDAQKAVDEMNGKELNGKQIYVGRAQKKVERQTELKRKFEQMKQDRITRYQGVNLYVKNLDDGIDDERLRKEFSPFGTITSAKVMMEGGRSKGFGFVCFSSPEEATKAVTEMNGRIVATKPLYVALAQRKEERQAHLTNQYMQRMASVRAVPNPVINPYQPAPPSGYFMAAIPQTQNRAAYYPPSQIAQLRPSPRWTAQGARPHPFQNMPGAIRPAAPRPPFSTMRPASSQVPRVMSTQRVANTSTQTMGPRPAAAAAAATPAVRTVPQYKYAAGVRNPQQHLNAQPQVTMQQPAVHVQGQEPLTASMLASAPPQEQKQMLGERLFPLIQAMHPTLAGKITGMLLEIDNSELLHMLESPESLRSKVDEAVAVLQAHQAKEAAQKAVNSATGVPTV
CSC inhib: cancer stem cell inhibition; cancer stem cell-like cells viability, luminescence; inhibition, % at 7.5 µM; 300,000 tested, 1.1% active;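 active = mean at 75% or more and at least half the replicates too; inconclusive = mean and replicates disagree; tested in HMLE shEcad cells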;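 also: 0% = median of negative and 100% = median of positive control wells; the first replicate is given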
eIF4H inh: inhibitors of RNA binding by human eIF4H; inhibition, % at 35 µM; 290,000 tested, 0.94% active; eIF4H fluorescence polarization binding assay; Q15056;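 active = 50% or more with normal probe brightness, or confirmed in later tests; inconclusive = above 50% with abnormal brightness, or retests that disagree; inactive = below 50% or failed in later tests; about a fifth of its hits are not listed in these tables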;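 also: calls also rest on retests at 20 µM and on dose response follow-up; 0% = protein and probe with vehicle and 100% = probe without protein; strong numbers were not always called active; many hits fall short of the cut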
Env fusion inh: inhibitors of HIV Env-mediated cell fusion; HeLa-JRFL Env/CEM21 cell fusion, luciferase; inhibition, % at 12.3 µM; 360,000 tested, 1.1% active;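 active = mean replicate inhibition score of at least 50 and every replicate individually at or above 50; inconclusive = only one of the two criteria met; inactive = mean below 50 and not all replicates reaching 50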;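 also: 0% = plate neutral controls and 100% = maraviroc near 300 nM; one replicate is shown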
Rce1 inh: inhibitors of yeast Ras-converting enzyme. yeast membranes, quenched prenylated peptide cleavage fluorescence. calls only. 290,000 tested, 0.27% active. AID 2563;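 active = fall in fluorescence gain of 50% or more versus controls, with final raw signal at or below 3038400; inconclusive = same 50% fall but final raw signal above 3038400; inactive = fall in fluorescence gain under 50%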;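 also: plate controls were neutral control wells for no effect and wells lacking membranes for full effect; tested at 10 µM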
eIF4H inh retest: further read-out of eIF4H inh, marked with its call; inhibition, %; compound at 20 µM; confirmation average;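 mean of two retest wells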
PABP polyA inh retest: further read-out of PABP polyA inh, marked with its call; inhibition, %; compound at 20 µM; confirmation repeats;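 mean of two retest wells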
MT1-MMP act inh RFP: second read-out of MT1-MMP act inh, no call of its own (marks repeat the call); RFP signal change, %; measured here: RFP expression control read;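 0 = vehicle wells; hits needed this value within 50% of zero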
The depositor's hits bear a star; i = inactive; ? = inconclusive; nt = not tested or not shown; & = joins results of further samples. Not all compounds are listed; count on the stated rates, not on these rows.

SMILES	Yeast UUG start	MT1-MMP act inh	MT1-MMP act inh RFP	PABP polyA inh	CSC inhib	eIF4H inh	Env fusion inh	Rce1 inh	others
O=C(c1ncn[nH]1)N1CCN(c2nc(-c3ccccc3)cs2)CC1	-17.4	-1.2	-3.1	-4.1	10.0	-1.8	nt	i
CC(=O)Nc1cccc(C(=O)NC2CCCc3c2cnn3-c2ccc(C(C)(C)C)cc2)c1 (centres undefined)	-10.8	-0.9	-18.5	21.3	44.0	-2.0	-0.9	i
CC(C)c1ccc(OCC(=O)NC2=NCCS2)cc1	-17.0	-5.5	-6.6	4.2	-6.4	0.5	-15.3	i
COc1ccc(CNC(=O)Nc2cc(C)cc(C)c2)cc1	nt	1.3	0.2	13.0	-9.1	4.5	-14.6	i
CCN(CC)c1ccc(C=NN2CCCCCC2)cc1	-10.0	20.7	-5.1	nt	nt	nt	-14.7	nt
Cc1cc(Br)ccc1OCCOCCN1CCCC1	-15.4	1.7	1.2	-4.4	21.5	3.1	10.6	i
O=C(Nc1ccc(Br)cc1)c1cnccn1	-8.8	-2.6	1.3	-6.0	1.1	-10.4	nt	i
CC1CC2C3CCC4=CC(=O)CCC4(C)C3CCC2(C)C1(O)C(=O)CO (centres undefined)	-19.8	5.5	-2.2	nt	nt	nt	-54.2	nt
COC(=O)c1csc2c(C(F)(F)F)cc(N3CCN(C(=O)Nc4ccccc4)CC3)nc12	-15.9	3.2	-5.3	-6.1	9.5	-2.4	-5.8	i
Cc1ccc(C(C)C)cc1OCC(=O)Nc1nnc(C2CC2)s1	-10.0	4.6	-2.9	nt	nt	nt	-21.2	nt
O=S(=O)(c1ccc(Br)cc1)c1nc(-c2ccccc2)oc1NCc1cccnc1	nt	-5.6	-14.3	-1.7	-6.6	-3.4	nt	i
CCc1noc(C)c1C(=O)N1CCN(c2ccc([N+](=O)[O-])cc2)CC1	4.9	-1.8	-3.7	nt	nt	nt	6.1	nt
COC(=O)C1(O)CC(CC(C)C)=NN1C(=O)c1ccccc1 (centres undefined)	-3.8	4.3	2.6	-0.9	-1.9	-2.9	nt	i
O=C(NCC1CCCO1)NC1(C(F)(F)F)Oc2ccccc2O1 (centres undefined)	4.0	-5.6	-12.8	-0.9	36.9	-1.9	-10.2	nt
CSc1ccc(CN(C)C(=O)c2cc(Cl)c3c(c2)OCCO3)cc1	-3.0	-3.9	-1.6	18.4	2.7	27.7	11.7	nt
CCN1C(=O)N(C)[C@@H](c2ccccc2)C(C(C)=O)=C1C	-7.6	1.4	5.4	nt	6.2	nt	-18.7	i
Cc1ccc(-c2csc(NC(=O)C3=COCCO3)n2)cc1C	-7.3	-9.1	-24.0	nt	20.5	nt	55.4*	i
COc1ccccc1CNS(=O)(=O)c1ccc2c(c1)CC(C)N2C(=O)C1CCC1 (centres undefined)	15.9	-3.2	-21.7	3.2	-7.3	-6.0	0.9	i
C[C@H](CO)N1C[C@H](C)[C@@H](CN(C)C(=O)c2ccccn2)Oc2cc(Br)ccc2S1(=O)=O	-18.5&-5.6	3.2	3.4	nt	nt	nt	5.5	nt
Nc1nc2ccccc2cc1-c1cccs1	2.1	0.8	1.7	-4.1	-7.1	-8.8	-50.9	i
C=CCN(c1ccccc1Cl)S(=O)(=O)c1cccc(C(=O)OCC(=O)N(C)C2CCS(=O)(=O)C2)c1 (centres undefined)	15.5	0.0	0.2	19.2	-12.2	3.6	-1.3	nt
Cc1ccc[n+](C(C)C(=O)Nc2ccc([N+](=O)[O-])cc2C)c1 (centres undefined)	4.4	4.0	4.6	0.5	nt	-8.1	-7.8	i
COc1cc(/C=C/C(=O)OCC(=O)N(C)Cc2ccccc2)cc(OC)c1OC	-8.4	-1.8	-1.1	nt	-8.5	nt	nt	nt
O=C(COC(=O)Cc1ccsc1)NC(c1ccccc1)c1ccccc1	-7.5	-2.3	3.4	8.2	-9.0	0.8	21.8	i
CC(C)Oc1ccc(S(=O)(=O)N2CCOCC2)cc1NC(=O)C1=COCCO1	24.2	-2.5	-0.8	nt	-5.8	nt	12.0	i
CCOC(=O)C1=C(COC(=O)c2ccccc2[N+](=O)[O-])NC(=O)NC1C (centres undefined)	nt	5.7	7.2	nt	-6.5	nt	12.6	i
CCOc1ccc(S(=O)(=O)N2CCCCC2)cc1NC(=O)C1CCC1	-15.6	4.1	3.3	nt	-10.1	nt	-16.4	i
Cc1cc(O)c(C(C[N+](=O)[O-])c2ccc(Cl)cc2)c(=O)o1 (centres undefined)	-7.1	-1.2	0.7	8.6	-3.4	6.4	nt	i
CCCN(CCC)CCCNC(=O)CCNS(=O)(=O)c1ccc(Br)cc1	nt	-1.5	1.6	0.0	54.7	2.4	nt	i
Cn1c(=NC(=O)c2ccco2)sc2cccc(F)c21	-17.9	6.2	5.4	-6.1	-10.1	-7.7	-151.8	i
CC(=O)Nc1sc(C)c(C)c1C(=O)OCC(=O)NCc1ccccc1	-11.4	-0.8	4.3	nt	nt	nt	-23.7	nt
CCC1=NN(C(=O)COc2ccccc2)C(O)(c2ccc(Br)cc2)C1 (centres undefined)	8.8	-3.0	2.9	-0.5	-7.2	6.8	9.1	i
COc1cc([N+](=O)[O-])ccc1NC(=O)Cc1ccc(C)cc1	nt	0.0	3.1	-12.8	13.7	4.9	1.3	i
CN(Cc1ccccc1)C(=S)NC(=O)c1ccccc1	-8.2	8.8	1.2	?	10.4	-6.9	-3.2	i
COc1ccc(Cl)cc1/C=C1/C(=O)ON=C1C	-7.0	-2.2	-0.7	5.5	nt	5.3	7.6	i
COc1ccc(N(CC(=O)N2CCN(Cc3ccccc3)CC2)S(C)(=O)=O)cc1Cl	-17.1	9.9	1.4	-10.0	1.1	-9.3	0.2	i
Cc1ccc(NC(=O)c2cncc(Br)c2)cc1S(=O)(=O)N(C)C	-20.8	0.6	-1.1	12.6	5.9	3.0	3.8	i
C/C(=N\Nc1ccc(C(F)(F)F)cc1[N+](=O)[O-])C1CC1	nt	1.8	3.3	-1.5	-6.0	-2.2	nt	i
CC(=O)O[C@H]1C(=O)[C@@]2(C)C([C@H](OC(=O)c3ccccc3)[C@]3(O)C[C@H](OC(=O)[C@H](O)[C@@H](NC(=O)c4ccccc4)c4ccccc4)C(C)=C1C3(C)C)[C@]1(OC(C)=O)CO[C@@H]1C[C@H]2O (some centres undefined)	-11.6	-9.1	-16.5	13.8	48.5	2.5	nt	i
CC1CCC/C(=N\NS(=O)(=O)c2ccccc2)C1 (centres undefined)	nt	1.2	-0.1	11.1	-21.0	-3.8	0.1	i
Cc1ccn2c(=O)nc(SCC(=O)NCc3ccc(F)cc3)nc2c1	-12.3	-4.6	5.0	nt	-5.4	nt	-7.3	i
Cc1ccc(C)n1Cc1ccc(C(=O)O)cc1	nt	-0.6	1.3	88.2*	5.0	93.0*	nt	nt
COc1ccc(-c2n[nH]c(=S)o2)c(OC)c1	-5.5	8.8	9.6	9.5	-15.2	-6.2	nt	i
O=C(O)C1=C[C@H](c2ccc(F)cc2)C[C@H](OCc2ccc(CO)cc2)O1	-23.2	2.8	2.4	2.7	7.5	6.2	11.9	i
COc1ccc2c(=O)cc(-c3ccccc3)n(C)c2c1	-13.6	7.2	1.5	6.3	-24.1	77.9	-59.4	nt	eIF4H inh retest=-16.7;PABP polyA inh retest=14.0
CCOC(=O)N1CCN(C(=O)C2CCN(Cc3ccc(O)c(OCC)c3)CC2)CC1	nt	1.2	2.5	16.7	-4.0	-7.9	-5.3	i
Cc1ccccc1CN(C)C(C)C(=O)NCc1ccccc1 (centres undefined)	-10.9	0.1	-0.1	-11.7	-7.0	-14.0	-12.1	i
Cc1cc(OC(=O)c2ccc(S(=O)(=O)N(C)C)cc2)cc(=O)o1	-7.7	1.3	2.7	23.0	-8.2	-2.2	nt	i
Cn1nnnc1SCC(=O)Nc1cc(C(C)(C)C)nn1-c1ccccc1	-9.5	-4.5	-1.9	5.7	2.4	-6.3	28.0	i
O=C(Nc1nc2ccc(Cl)cc2s1)C1CCCO1 (centres undefined)	-17.1	-1.0	-3.6	-3.2	-4.1	-0.3	nt	i
CCCCN(C(=N)N1CCCCC1)c1nc(C)c([N+](=O)[O-])c(=O)[nH]1	9.7	0.1	4.9	1.1	-20.0	-2.0	nt	i
N#Cc1c(NC(=O)CSc2ncnc3c2cnn3-c2ccccc2Cl)sc2c1CCCC2	-15.0	-4.6	-12.0	nt	37.5	nt	nt	nt
O=C1c2ccccc2C(=O)N1CC1c2ccccc2CCN1C(=O)C1CCCCC1 (centres undefined)	5.9	-3.7	-2.0	5.1	-11.3	-4.3	-32.5	i
COc1ccc(/C=N/NC(=O)c2cccc([N+](=O)[O-])c2)cc1OS(=O)(=O)c1ccccc1	nt	0.4	-4.0	-17.1	-1.6	-6.6	-26.2	i
Cc1c(C#N)c2ccccc2n1CC(=O)N1CCCc2ccccc21	-6.3	-1.9	-1.9	-5.2	-10.3	9.1	nt	i
c1ccc(-c2nn3c(Cn4nnc5ccccc54)nnc3s2)cc1	-17.8	1.1	0.1	0.4	8.5	10.7	nt	i
O=C(NCCNc1ccc([N+](=O)[O-])cc1)c1cccs1	-12.4	-3.3	-7.8	-2.3	-5.6	-10.9	-0.6	i
O=c1c2ccccc2nnn1COc1ccc(F)cc1Cl	nt	-0.6	0.4	-8.2	1.5	-3.2	-1.0	i
O=C(NC1CCCC1)c1ncn[nH]1	-8.1	5.7	3.1	9.9	-11.9	3.2	-19.7	i
CCOC(=O)c1cccc(NC(=O)COc2ccc([N+](=O)[O-])cc2)c1	-10.0	4.6	0.0	-1.3	11.2	4.9	3.2	i

Retrieved by structure from above (3):
SMILES	Yeast UUG start	MT1-MMP act inh	MT1-MMP act inh RFP	PABP polyA inh	CSC inhib	eIF4H inh	Env fusion inh	Rce1 inh	others
O=c1c2ccccc2nnn1COc1ccc(F)cc1Cl	nt	-0.6	0.4	-8.2	1.5	-3.2	-1.0	i
CCCCN(C(=N)N1CCCCC1)c1nc(C)c([N+](=O)[O-])c(=O)[nH]1	9.7	0.1	4.9	1.1	-20.0	-2.0	nt	i
COc1ccc(/C=N/NC(=O)c2cccc([N+](=O)[O-])c2)cc1OS(=O)(=O)c1ccccc1	nt	0.4	-4.0	-17.1	-1.6	-6.6	-26.2	i

More structures
SMILES	Yeast UUG start	MT1-MMP act inh	MT1-MMP act inh RFP	PABP polyA inh	CSC inhib	eIF4H inh	Env fusion inh	Rce1 inh	others
CN1CCN(c2nc(-c3ccc(C(C)(C)C)cc3)nc3ccccc23)CC1	-24.9	0.3	-3.8	13.4	38.3	8.4	-229.0	i
COc1ccc(C(=O)NCC(=O)OCC(=O)N2CCCc3ccccc32)cc1	nt	-0.4	1.6	-0.9	-7.8	-4.4	2.4	i
Cc1cc(NS(=O)(=O)c2ccc(NC(=S)NC(=O)c3cccc(S(=O)(=O)N(C)C)c3)cc2)no1	-17.8	1.1	1.2	21.4	-10.1	-9.2	-0.1	i
COc1ccc(-c2noc(C(=O)NCc3ccc(F)cc3)n2)cc1OC	nt	-1.4	-4.0	-8.4	-2.2	-6.3	-0.6	i

Structures from the list above containing a cyano group, in the order listed:
SMILES	Yeast UUG start	MT1-MMP act inh	MT1-MMP act inh RFP	PABP polyA inh	CSC inhib	eIF4H inh	Env fusion inh	Rce1 inh	others
N#Cc1c(NC(=O)CSc2ncnc3c2cnn3-c2ccccc2Cl)sc2c1CCCC2	-15.0	-4.6	-12.0	nt	37.5	nt	nt	nt
Cc1c(C#N)c2ccccc2n1CC(=O)N1CCCc2ccccc21	-6.3	-1.9	-1.9	-5.2	-10.3	9.1	nt	i
